Screening data (PubChem)
FGF22 binding = binders of recombinant human FGF22 by thermal shift | SYPRO orange fluorescence; percent of sucrose octasulfate shift, DMSO zero | hit rate 1.5% among 340,000 | AID 651658 | calls only at 9.99 µM;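 active = melting point raised past a set limit in the mean and every replicate; three in four hits are not shown here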
Target sequence (Q9HCT0 whole entry, looked up): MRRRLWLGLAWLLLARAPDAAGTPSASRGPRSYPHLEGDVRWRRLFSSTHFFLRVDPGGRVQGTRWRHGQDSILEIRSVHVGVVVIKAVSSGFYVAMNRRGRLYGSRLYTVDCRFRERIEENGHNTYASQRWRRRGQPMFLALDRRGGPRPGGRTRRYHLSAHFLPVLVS
Ecoli rRNA inh = inhibits bacterial ribosomal RNA function over humanized ribosomes; E. coli WT GFP vs humanized-ribosome RFP mutants, fluorescence, 24 h; active compounds read low; DMSO median 0, no signal -100; GFP signal change (wild-type ribosome), % (no concentration beside the values); hit rate 1.6% among 350,000; AID 720706;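 active = significant combined selectivity score with lowered wild-type GFP, culture density cut under 30%, mutant RFP and density less affected; inactive = any of these conditions unmet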; note: one replicate is shown; some compounds called inactive have numbers as strong as hits
AF4-AF9 inh = blocks AF4 peptide binding to human AF9 | inhibition, % at 10 µM | AlphaScreen, biotin-AF4 peptide binding to FLAG-AF9 | AID 651704 | hit rate 0.47% among 350,000 | P42568;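 active = every replicate reaching a set inhibition limit, whatever the replicate mean, cut at about 25% in these data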;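 note: 0% = plate neutral control median and 100% = total signal loss; the record names both 10 and 1 µM as test concentration; the first replicate is given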
Target sequence (P42568 whole entry, looked up): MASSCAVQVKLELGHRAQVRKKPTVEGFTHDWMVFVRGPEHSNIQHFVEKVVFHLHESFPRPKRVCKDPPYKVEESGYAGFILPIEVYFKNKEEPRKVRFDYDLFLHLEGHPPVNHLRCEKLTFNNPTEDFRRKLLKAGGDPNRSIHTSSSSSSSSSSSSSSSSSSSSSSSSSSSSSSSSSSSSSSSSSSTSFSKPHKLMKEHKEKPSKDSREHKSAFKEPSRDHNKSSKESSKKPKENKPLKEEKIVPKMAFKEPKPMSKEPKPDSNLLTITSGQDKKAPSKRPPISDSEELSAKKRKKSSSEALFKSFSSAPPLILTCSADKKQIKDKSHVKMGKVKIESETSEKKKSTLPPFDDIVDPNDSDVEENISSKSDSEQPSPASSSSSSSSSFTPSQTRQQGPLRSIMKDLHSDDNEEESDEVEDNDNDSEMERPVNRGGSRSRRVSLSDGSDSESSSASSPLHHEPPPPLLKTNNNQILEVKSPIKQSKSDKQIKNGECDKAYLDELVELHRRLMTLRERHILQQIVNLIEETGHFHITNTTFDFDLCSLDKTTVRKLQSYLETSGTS
Ecoli rRNA inh OD600 = second read-out of Ecoli rRNA inh, no call of its own (marks repeat the call); OD600 change, %; measured here: OD600 growth;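 optical density of the mix in the first replicate; 0 = DMSO median and -100 = no signal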
Ecoli rRNA inh RFP = second read-out of Ecoli rRNA inh, no call of its own (marks repeat the call); RFP signal change, %; measured here: RFP humanized mutant strains;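 first replicate; 0 = DMSO median and -100 = no signal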
* hit, by the source's call. Not all compounds are listed; the hit share may differ from the screen's.

For Cc1noc(C)c1NC(=O)N(C)C[C@H]1OCCCC[C@@H](C)Oc2ccc(NS(=O)(=O)c3ccc(F)cc3)cc2C(=O)N([C@@H](C)CO)C[C@H]1C the results were FGF22 binding inactive, Ecoli rRNA inh -4, AF4-AF9 inh -4.5, Ecoli rRNA inh OD600 -7 and Ecoli rRNA inh RFP 1.1.
For O=C(Cn1nnc(-c2ccc(F)cc2)n1)NC(=O)NC1CCCCC1 the results were FGF22 binding inactive, Ecoli rRNA inh -14, AF4-AF9 inh -1.2, Ecoli rRNA inh OD600 -11 and Ecoli rRNA inh RFP -3.6.
`CC(C)CNC(=O)C1(C)CCN1C(=O)c1ccc(C(C)(C)C)cc1` (stereo not given) gave FGF22 binding inactive, Ecoli rRNA inh 10, AF4-AF9 inh -6.5, Ecoli rRNA inh OD600 15 and Ecoli rRNA inh RFP -0.3.
For C[C@@H]1CN([C@H](C)CO)C(=O)c2cccc(NS(=O)(=O)c3ccccc3)c2O[C@@H]1CN(C)Cc1ccc(Oc2ccccc2)cc1 the results were FGF22 binding inactive, Ecoli rRNA inh -3, AF4-AF9 inh -1.1, Ecoli rRNA inh OD600 -2 and Ecoli rRNA inh RFP 2.1.
For O=C(CCN1CCCCC1)NCC[C@H]1CC[C@@H](NS(=O)(=O)c2cccc(Cl)c2)[C@H](CO)O1 the results were FGF22 binding inactive, Ecoli rRNA inh 2, AF4-AF9 inh -1.1, Ecoli rRNA inh OD600 9 and Ecoli rRNA inh RFP 1.6.
Screening Oc1c(CNc2ccccc2)cc(COCc2ccccc2)c2cccnc12 returned Ecoli rRNA inh -30, AF4-AF9 inh 68*, Ecoli rRNA inh OD600 -42 and Ecoli rRNA inh RFP -12.
CN(C)C(=O)C[C@H]1CC[C@@H]2[C@H](COC[C@H](O)CN2CC2CCCC2)O1 was read as FGF22 binding inactive, Ecoli rRNA inh 1, AF4-AF9 inh -11, Ecoli rRNA inh OD600 2 and Ecoli rRNA inh RFP -1.7.
CCCNC(=O)C[C@H]1CC[C@H]2[C@@H](COc3ccc(NC(=O)c4ccc(Cl)cc4)cc3C(=O)N2C)O1 was read as FGF22 binding inactive, Ecoli rRNA inh -6, AF4-AF9 inh -0.8, Ecoli rRNA inh OD600 -18 and Ecoli rRNA inh RFP -1.8.
For O=C(C[C@@H]1C[C@H]2c3cc(NC(=O)Cc4ccncc4)ccc3O[C@H]2[C@H](CO)O1)NCc1ccc2c(c1)OCO2 the results were FGF22 binding inactive, Ecoli rRNA inh -2, AF4-AF9 inh -1.3, Ecoli rRNA inh OD600 6 and Ecoli rRNA inh RFP -1.4.
COC(=O)C[C@@H]1CC[C@H]2[C@H](COc3ccc(NS(=O)(=O)c4ccccc4Cl)cc3C(=O)N2C)O1 was read as FGF22 binding inactive, Ecoli rRNA inh -3, AF4-AF9 inh -1.5, Ecoli rRNA inh OD600 -14 and Ecoli rRNA inh RFP -1.2.
Screening C[C@H](CO)N1C[C@H](C)[C@@H](CN(C)C(=O)c2ccccc2)OCc2ccccc2-c2c(n(C)c3ccccc23)C1=O returned FGF22 binding inactive, Ecoli rRNA inh 1, AF4-AF9 inh 2.0, Ecoli rRNA inh OD600 1 and Ecoli rRNA inh RFP -2.4.
CC=Cc1ccc2n(c1=O)C[C@@H]1[C@@H](CO)[C@H](C(=O)NCC3CC3)[C@H]2N1C(=O)c1ccccc1 (mixture of isomers) was read as FGF22 binding inactive, Ecoli rRNA inh 1, AF4-AF9 inh 1.2, Ecoli rRNA inh OD600 -6 and Ecoli rRNA inh RFP 1.1.
Screening COC(=O)C12OCC34C(CC5C(C)=C(O)C(=O)CC5(C)C3C(O)C1O)OC(=O)C(OC(=O)C=C(C)C)C24 (stereo not given) returned FGF22 binding inactive, Ecoli rRNA inh 10, AF4-AF9 inh -4.3, Ecoli rRNA inh OD600 7 and Ecoli rRNA inh RFP 5.5.
Screening C[C@@H]1CN([C@@H](C)CO)C(=O)c2cc(NC(=O)CCCN(C)C)ccc2O[C@H]1CN(C)S(=O)(=O)c1cccs1 returned FGF22 binding inactive, Ecoli rRNA inh 3, AF4-AF9 inh 1.7, Ecoli rRNA inh OD600 3 and Ecoli rRNA inh RFP 1.1.
COc1ccccc1C(NC(=O)C1CCN(CCc2ccc(Br)cc2)CC1)c1ccccn1 (stereo not given) was read as FGF22 binding inactive, Ecoli rRNA inh 13, AF4-AF9 inh -3.6, Ecoli rRNA inh OD600 22 and Ecoli rRNA inh RFP 2.0.
Screening C[C@@H]1CN([C@H](C)CO)C(=O)Cc2cc(NC(=O)Nc3ccc4c(c3)OCO4)ccc2O[C@@H]1CN(C)C(=O)Nc1cccc2ccccc12 returned FGF22 binding inactive, Ecoli rRNA inh 0, AF4-AF9 inh 8.8, Ecoli rRNA inh OD600 -4 and Ecoli rRNA inh RFP -2.1.
For C[C@@H]1CN([C@@H](C)CO)C(=O)c2c(c3ccccc3n2C)-c2ccccc2CO[C@H]1CN(C)C(=O)[C@@H](Cc1ccccc1)N(C)C the results were FGF22 binding inactive, Ecoli rRNA inh 1, AF4-AF9 inh 10, Ecoli rRNA inh OD600 -2 and Ecoli rRNA inh RFP 0.5.
`C[C@@H]1CN([C@@H](C)CO)C(=O)c2cc(NC(=O)Cc3ccccc3)ccc2O[C@H]1CN(C)C(=O)Nc1cccc2ccccc12` gave FGF22 binding inactive, Ecoli rRNA inh -1, AF4-AF9 inh -1.3, Ecoli rRNA inh OD600 -5 and Ecoli rRNA inh RFP -0.3.
For CCNC(=O)C[C@@H]1CC[C@@H]2[C@H](COC[C@H](O)CN2C(=O)Nc2c(C)noc2C)O1 the results were FGF22 binding inactive, Ecoli rRNA inh 6, AF4-AF9 inh -0.7, Ecoli rRNA inh OD600 3 and Ecoli rRNA inh RFP -6.1.
Screening CCCC[C@@H]1CC2=C(C(=O)OC(C)(C)O2)[C@@H](c2ccc(F)cc2)O1 returned FGF22 binding inactive, Ecoli rRNA inh 8, AF4-AF9 inh 2.4, Ecoli rRNA inh OD600 11 and Ecoli rRNA inh RFP -0.8.

Brought forward from above: 2 entries, then new ones.
For CCNC(=O)C[C@@H]1CC[C@@H]2[C@H](COC[C@H](O)CN2C(=O)Nc2c(C)noc2C)O1 the results were FGF22 binding inactive, Ecoli rRNA inh 6, AF4-AF9 inh -0.7, Ecoli rRNA inh OD600 3 and Ecoli rRNA inh RFP -6.1.
Screening CCCC[C@@H]1CC2=C(C(=O)OC(C)(C)O2)[C@@H](c2ccc(F)cc2)O1 returned FGF22 binding inactive, Ecoli rRNA inh 8, AF4-AF9 inh 2.4, Ecoli rRNA inh OD600 11 and Ecoli rRNA inh RFP -0.8.
For C[C@@H]1CN([C@@H](C)CO)C(=O)Cc2cc(NC(=O)c3ccncc3)ccc2O[C@H]1CN(C)S(=O)(=O)c1cccs1 the results were FGF22 binding inactive, Ecoli rRNA inh -4, AF4-AF9 inh 1.3, Ecoli rRNA inh OD600 -2 and Ecoli rRNA inh RFP 0.7.
For COc1ccccc1C#Cc1cnc2c(c1)C(=O)N([C@@H](C)CO)C[C@@H](C)[C@H](CN(C)C(=O)CN(C)C)O2 the results were FGF22 binding inactive, Ecoli rRNA inh 5, AF4-AF9 inh 11, Ecoli rRNA inh OD600 4 and Ecoli rRNA inh RFP -0.7.
Screening COc1ccc2c3c(n(C)c2c1)[C@H](CO)N(C(=O)C1CC1)CC31CCN(C(=O)CN(C)C)CC1 returned FGF22 binding inactive, Ecoli rRNA inh 4, AF4-AF9 inh -1.0, Ecoli rRNA inh OD600 8 and Ecoli rRNA inh RFP -0.7.
C[C@H](CO)N1C[C@H](C)[C@@H](CN(C)S(=O)(=O)c2ccc(Cl)cc2)Oc2ccc(NC(=O)Cc3ccccc3)cc2C1=O was read as FGF22 binding inactive, Ecoli rRNA inh -1, AF4-AF9 inh -2.1, Ecoli rRNA inh OD600 -10 and Ecoli rRNA inh RFP 2.9.
`COc1ccccc1N1CCN(CCCN2C(=O)C3CCCN3C2=O)CC1` (stereo not given) gave FGF22 binding inactive, Ecoli rRNA inh 3, AF4-AF9 inh 6.6, Ecoli rRNA inh OD600 5 and Ecoli rRNA inh RFP -3.7.
O=C(c1ccc2c(c1)OCCO2)N1CCN(c2ccc(C(F)(F)F)cn2)CC1 was read as FGF22 binding inactive, Ecoli rRNA inh 0, AF4-AF9 inh -3.2, Ecoli rRNA inh OD600 -1 and Ecoli rRNA inh RFP -0.4.
`CCC(=O)N(C)C[C@H]1Oc2ncc(C#CCc3ccccc3)cc2C(=O)N([C@H](C)CO)C[C@@H]1C` gave FGF22 binding inactive, Ecoli rRNA inh -1, AF4-AF9 inh -3.6, Ecoli rRNA inh OD600 -15 and Ecoli rRNA inh RFP 0.7.
COC(=O)[C@]12CCCCC=C1N(Cc1ccc3c(c1)OCO3)C(=O)[C@H](CC(=O)NCCCN1CCCC1=O)C2 was read as FGF22 binding inactive, Ecoli rRNA inh 5, AF4-AF9 inh -2.8, Ecoli rRNA inh OD600 1 and Ecoli rRNA inh RFP 2.9.
`C[C@H]1CN([C@@H](C)CO)C(=O)Cc2cc(NC(=O)c3ccncc3)ccc2O[C@@H]1CN(C)C(=O)Nc1cccc2ccccc12` gave FGF22 binding inactive, Ecoli rRNA inh 0, AF4-AF9 inh -1.4, Ecoli rRNA inh OD600 -5 and Ecoli rRNA inh RFP 2.8.
`CN(C)C(=O)C[C@H]1C=C[C@@H](NC(=O)C2CCC2)[C@@H](CO)O1` gave FGF22 binding inactive, Ecoli rRNA inh 6, AF4-AF9 inh -3.4, Ecoli rRNA inh OD600 13 and Ecoli rRNA inh RFP 0.4.
`CC(C)CC#Cc1cnc2c(c1)C(=O)N([C@@H](C)CO)C[C@@H](C)[C@H](CN(C)C(=O)c1ccc3c(c1)OCO3)O2` gave FGF22 binding inactive, Ecoli rRNA inh 4, AF4-AF9 inh 7.7, Ecoli rRNA inh OD600 16 and Ecoli rRNA inh RFP 4.4.
Screening O=C(NCC(F)(F)F)[C@@H]1[C@@H](CO)[C@@H]2Cn3c(cccc3=O)[C@@H]2N1C(=O)C1CC1 returned FGF22 binding inactive, Ecoli rRNA inh 4, AF4-AF9 inh -0.8, Ecoli rRNA inh OD600 4 and Ecoli rRNA inh RFP -0.5.
`Cc1ccc(S(=O)(=O)NCCC(=O)NNC(=O)c2ccccc2Cl)cc1C` gave FGF22 binding inactive, Ecoli rRNA inh 1, AF4-AF9 inh 4.1, Ecoli rRNA inh OD600 1 and Ecoli rRNA inh RFP 2.1.
C/C=C/c1cnc2c(c1)C(=O)N([C@H](C)CO)C[C@H](C)[C@@H](CN(C)C(=O)c1ccc3c(c1)OCO3)O2 was read as FGF22 binding inactive, Ecoli rRNA inh -6, AF4-AF9 inh -2.2, Ecoli rRNA inh OD600 -5 and Ecoli rRNA inh RFP -0.2.
For CO[C@H]1CN(C)C(=O)c2ccc(NC(=O)Cc3ccccc3)cc2OC[C@@H](C)NC[C@@H]1C the results were FGF22 binding inactive, Ecoli rRNA inh -1, AF4-AF9 inh -0.7, Ecoli rRNA inh OD600 -8 and Ecoli rRNA inh RFP -0.7.
C[C@H]1CN([C@@H](C)CO)C(=O)c2cc(C#Cc3ccc(F)cc3)cnc2O[C@H]1CN(C)S(C)(=O)=O was read as FGF22 binding inactive, Ecoli rRNA inh 2, AF4-AF9 inh -0.6, Ecoli rRNA inh OD600 15 and Ecoli rRNA inh RFP 4.3.
For C[C@@H]1CN([C@H](C)CO)C(=O)c2cccc(NC(=O)c3ccncc3)c2O[C@H]1CN(C)Cc1ccc(Cl)c(Cl)c1 the results were FGF22 binding inactive, Ecoli rRNA inh -32, AF4-AF9 inh -2.8, Ecoli rRNA inh OD600 -57 and Ecoli rRNA inh RFP -6.9.
Screening COCC(=O)N1C[C@@H]2[C@H](c3ccccc31)[C@H](CO)N2C(=O)c1ccncc1 returned FGF22 binding inactive, Ecoli rRNA inh -1, AF4-AF9 inh 7.4, Ecoli rRNA inh OD600 4 and Ecoli rRNA inh RFP -3.7.
`C[C@H]1CN([C@@H](C)CO)C(=O)c2cc(NC(=O)CCN3CCOCC3)ccc2O[C@H]1CN(C)S(=O)(=O)c1cccs1` gave FGF22 binding inactive, Ecoli rRNA inh 2, AF4-AF9 inh -12, Ecoli rRNA inh OD600 1 and Ecoli rRNA inh RFP 0.0.
Screening CC(=O)Nc1cccc(-c2cc3nc(NCc4cccnc4)n(C)c(=O)c3s2)c1 returned FGF22 binding inactive, Ecoli rRNA inh 17, AF4-AF9 inh 1.6, Ecoli rRNA inh OD600 10 and Ecoli rRNA inh RFP 2.2.
CC1CCCN(C(=O)Cn2c(=O)oc3cc(S(=O)(=O)N4CCCCC4C)ccc32)C1 (stereo not given) was read as FGF22 binding inactive, Ecoli rRNA inh 5, AF4-AF9 inh 3.6, Ecoli rRNA inh OD600 14 and Ecoli rRNA inh RFP 2.2.

In the list so far, these have a CF3 group:
O=C(c1ccc2c(c1)OCCO2)N1CCN(c2ccc(C(F)(F)F)cn2)CC1 was read as FGF22 binding inactive, Ecoli rRNA inh 0, AF4-AF9 inh -3.2, Ecoli rRNA inh OD600 -1 and Ecoli rRNA inh RFP -0.4.
Screening O=C(NCC(F)(F)F)[C@@H]1[C@@H](CO)[C@@H]2Cn3c(cccc3=O)[C@@H]2N1C(=O)C1CC1 returned FGF22 binding inactive, Ecoli rRNA inh 4, AF4-AF9 inh -0.8, Ecoli rRNA inh OD600 4 and Ecoli rRNA inh RFP -0.5.
